# Mtb growth: Mycobacterium tuberculosis H37Rv growth inhibition, putative kinase inhibitor library, confirmatory dose response (AID 2842) | M. tuberculosis H37Rv growth inhibition; higher % means a stronger effect; some inactives read as strong as hits | inhibition, % at 10 µg/mL, or IC90 in µg/mL where a hit was titrated | 24,000 compounds, 5.2% hits;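 active = confirmed in a dose series; inconclusive = mostly over 85% at the one dose but not retested; inactive = below 85% or not confirmed; about a fifth of its hits are not listed in these tables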;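 also: bacteria incubated one week before Alamar blue readout; 0% = bacteria only wells and 100% = bacteria with high antibiotic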
# Active calls of the source: *; ? = inconclusive. Not all compounds are listed. The share of hits here may be higher or lower than overall.
SMILES,Mtb growth
CCS(=O)(=O)c1ccccc1C(=O)Nc1sc2c(c1C(N)=O)CCC(C)C2 (stereo not drawn),-17.6%
Cc1cc(SCC(=O)c2cccc([N+](=O)[O-])c2)nc(=O)[nH]1,-7.1%
COc1ccc(-c2nnc(SCC(=O)Nc3cc(C)on3)o2)cc1OC,-0.9%
CCOC(=O)c1ccc(Nc2nnc3[nH]c(=O)c4c(C)c(C)sc4n23)cc1,-12.7%
COc1ccc2cc(CCNC(=O)c3ccc(S(=O)(=O)N4CCCCC4)cc3)c(=O)[nH]c2c1,-4.1%
NC(=O)c1c(NC(=O)COc2ccccc2)sc2c1CCCC2,-2.4%
CC1(C)OC2C(CO)OC(n3cnc4c(=O)[nH]cnc43)C2O1 (stereo not drawn),-15.1%
C=CCSc1nc2c(c(=O)[nH]1)C(c1ccc(OC)cc1)C1=C(CCCC1=O)N2 (stereo not drawn),-0.5%
CC1CC(C)CN(c2ncnc3nc[nH]c23)C1 (stereo not drawn),-1.4%
CCOc1cc(/C=N/NC(=O)c2cc(-c3ccc(C)s3)[nH]n2)ccc1O,10.3%
Cc1ccc(Cn2c(=O)n(-c3ccc(C)cc3)c(=O)c3ccc(C(=O)NCc4ccco4)cc32)cc1,-1.1%
CCS(=O)(=O)c1ccc(C(=O)Nc2nc3c(F)cccc3s2)cc1,-11.3%
CCOC(=O)c1sc(NC(C)=O)cc1C,2.2%
CCOC(=O)CCC(=O)Nc1c(C(=O)Nc2ccccc2OCC)oc2ccccc12,-3.0%
Cc1sc(NC(=O)C(c2ccccc2)c2ccccc2)c(C(N)=O)c1C,23.0%
Fc1cccc2sc(Nc3nc4c(F)cccc4s3)nc12,5.7%
CCC(=O)Nc1nnc(-c2cc(Cl)ccc2Cl)o1,30.1µg/mL*
COc1cc(/C=C2\SC(=S)N(c3ccc(C(=O)O)c(O)c3)C2=O)ccc1O,-4.7%
CC(Sc1ccccc1)C(=O)Nc1nnc(-c2ccc(Cl)cc2)s1 (stereo not drawn),-2.7%
Cc1ccc2cc(CCNC(=O)c3ccc4ccccc4c3)c(=O)[nH]c2c1,1.1%
Cn1c(=O)c2c(nc(SCc3ccccc3)n2Cc2ccc(Cl)cc2)n(C)c1=O,42.1%
O=C(NCc1ccc2c(c1)OCO2)C(=O)Nc1cc2c3c(c1)CCN3C(=O)CC2,-4.4%
CCOc1ccc(N=Nc2c(C)n[nH]c2C)cc1,?
COc1ccc(C2C(C(=O)Nc3ccc(Cl)cc3)=C(C)Nc3nnnn32)c(OC)c1 (stereo not drawn),19.9%
CCC(Sc1nc(N)c(NC(=O)c2ccco2)c(=O)[nH]1)C(=O)OC (stereo not drawn),5.3%
O=C(Nc1ccc2c(c1)OCO2)c1sc2cc(F)ccc2c1Cl,-5.1%
O=C(CSc1ncnc2ccccc12)NCC1CCCO1 (stereo not drawn),-7.8%
COc1ccc(C(=O)NNC(=O)CC2CCS(=O)(=O)C2)cc1 (stereo not drawn),-9.7%
Cc1[nH]c2ccc(N3CCOCC3)cc2c(=O)c1CN(C)C,-1.6%
CC(C)(C)c1ccc(-n2c(=O)[nH]c3c(C(N)=O)nc(-c4ccc(F)cc4)nc32)cc1,-6.5%
COc1ccc(CCNc2oc(COc3ccc(Cl)cc3)nc2C#N)cc1OC,-2.5%
CC1=C(C(=O)OCc2ccccc2)C(c2ccccc2)C(C#N)=C(N)O1 (stereo not drawn),0.6%
Cc1cc2cc(CCNC(=O)C(=O)c3c[nH]c4ccccc34)c(=O)[nH]c2cc1C,0.8%
COc1ccc(C)cc1NS(=O)(=O)c1ccc2[nH]c(=O)[nH]c2c1,0.9%
O=C(Nc1nc(-c2ccccc2)c(C(=O)c2ccccc2)s1)c1ccc(Cl)cc1,2.1%
CCOc1ccc(-c2nnc3c4cc5c(cc4n(Cc4ccccc4OC)cc2-3)OCO5)cc1,9.22µg/mL*
COc1cc(OC)cc(C(=O)Nc2cc(C)c3c(=O)oc4ccccc4c3n2)c1,-8.8%
COc1ccc2cc(CCNC(=O)c3ccccc3F)c(=O)[nH]c2c1,0.8%
O=C(c1cc2cc(Cl)ccc2oc1=O)N1CCN(Cc2ccccc2)CC1,-6.1%
COc1cccc(CNC(=O)C(=O)Nc2cc3c4c(c2)CCC(=O)N4CCC3)c1,-2.9%

# Another view of part of the listing above.
Compound	Mtb growth
CC(C)(C)c1ccc(-n2c(=O)[nH]c3c(C(N)=O)nc(-c4ccc(F)cc4)nc32)cc1	-6.5%
COc1ccc(CCNc2oc(COc3ccc(Cl)cc3)nc2C#N)cc1OC	-2.5%

# Fetched by compound from above:
SMILES,Mtb growth
COc1cc(/C=C2\SC(=S)N(c3ccc(C(=O)O)c(O)c3)C2=O)ccc1O,-4.7%
CCOc1ccc(-c2nnc3c4cc5c(cc4n(Cc4ccccc4OC)cc2-3)OCO5)cc1,9.22µg/mL*
COc1cc(OC)cc(C(=O)Nc2cc(C)c3c(=O)oc4ccccc4c3n2)c1,-8.8%
Fc1cccc2sc(Nc3nc4c(F)cccc4s3)nc12,5.7%
Cc1ccc2cc(CCNC(=O)c3ccc4ccccc4c3)c(=O)[nH]c2c1,1.1%
Cc1cc(SCC(=O)c2cccc([N+](=O)[O-])c2)nc(=O)[nH]1,-7.1%
Cc1sc(NC(=O)C(c2ccccc2)c2ccccc2)c(C(N)=O)c1C,23.0%

# 2 of these compounds in another layout.
O=C(Nc1ccc2c(c1)OCO2)c1sc2cc(F)ccc2c1Cl
  Mtb growth = -5.1%
COc1cc(OC)cc(C(=O)Nc2cc(C)c3c(=O)oc4ccccc4c3n2)c1
  Mtb growth = -8.8%

# Next section:
SMILES,Mtb growth
COc1ccccc1-c1cnn2c(Nc3ccc(C)c(C)c3)cc(C)nc12,14.4µg/mL*
CCOc1ccc(C(=O)Nc2sc3c(c2C(N)=O)CC(C)CC3)cc1 (stereo not drawn),2.1%
CCOC(=O)c1oc2ccccc2c1NC(=O)c1ccc(OC)c(OC)c1,3.1%
COc1ccc2c(c1)c(=O)c(Br)c(C)n2CC(=O)Nc1cccc(C)c1,6.4%
O=C(Cn1cnc2c(nnn2-c2ccc(Cl)cc2)c1=O)NCc1ccco1,-8.9%
O=C(CN1C(=O)/C(=C\c2cccs2)SC1=S)Nc1cccc(Cl)c1,-2.5%
CCOC(=O)c1ccc2nc(NC(=O)c3ccc(C)cc3)sc2c1,-3.0%
CCCn1c(C)cn2c3c(=O)n(Cc4cccc(Cl)c4)c(=O)n(C)c3nc12,-2.5%
COc1ccc2c(=O)c(Oc3ccc(C(=O)O)cc3)coc2c1,-16.7%
O=c1[nH]c(N/N=C/c2ccccc2)nnc1-c1ccccc1,0.8%
COc1ccc(C(=O)NCCc2cc3ccc(C)cc3[nH]c2=O)c(OC)c1,42.2%
O=C1SC(Nc2ccccc2F)C(=O)N1c1ccccc1 (stereo not drawn),0.9%
CCOC(=O)c1nn(-c2ccccc2)c(=O)c2c(NC(=O)C(C)(C)C)scc12,-16.2%
COC(=O)CCSCc1nc2ccccc2c(=O)[nH]1,-16.6%
O=C1c2ccccc2C(=O)c2cc(S(=O)(=O)NCc3cccnc3)ccc21,-7.8%
Cc1ccc(-c2nnc3ccc(SCC(=O)NCc4ccc5c(c4)OCO5)nn23)cc1,6.8%
O=C(NC1CC(=O)N(c2ccc3c(c2)OCCO3)C1)c1ccc2ccccc2c1 (stereo not drawn),4.2%
CC(=O)Cc1nsc(NC(=O)c2ccoc2COc2ccccc2)n1,-8.5%
CCCc1cc(=O)[nH]c2nnc(SCC(=O)OCC)n12,2.9%
COc1ccc(NC(=O)c2sc3nc(C)cc(C)c3c2N)cc1Cl,5.5%

# Ordered by number of heavy atoms (lowest first): part of the list above.
SMILES,Mtb growth
O=C1SC(Nc2ccccc2F)C(=O)N1c1ccccc1 (stereo not drawn),0.9%
CCOC(=O)c1ccc2nc(NC(=O)c3ccc(C)cc3)sc2c1,-3.0%
CCOc1ccc(C(=O)Nc2sc3c(c2C(N)=O)CC(C)CC3)cc1 (stereo not drawn),2.1%
O=C(Cn1cnc2c(nnn2-c2ccc(Cl)cc2)c1=O)NCc1ccco1,-8.9%
CCOC(=O)c1nn(-c2ccccc2)c(=O)c2c(NC(=O)C(C)(C)C)scc12,-16.2%

# More compounds.
SMILES,Mtb growth
CCc1ccc(-c2ccc3nnc(SCc4ccccc4F)n3n2)cc1,8.6%
Cc1ccc(/C=N/Nc2nc(-c3ccc4c(c3)OCCO4)cs2)cc1,84.2%
CCOC(=O)c1nn(-c2ccccc2)c(=O)c2c(NC(=O)C3CCCC3)scc12,-1.8%
CCOC(=O)c1c(NC(=O)CSc2nc3c([nH]c4ccccc43)c(=O)n2-c2cccc(OC)c2)sc2c1CCCCC2,-2.6%
O=c1[nH]c2ccccc2n1CCCOc1ccc(Cl)cc1,13.2%
CCOC(=O)c1nn(-c2ccc(OC)cc2)c(=O)c2c(NC(=O)CCCc3ccccc3)scc12,17.0%
CCOC(=O)C1=C(C)OC(N)=C(C#N)C1c1ccccc1C (stereo not drawn),1.1%
CC1CCCCN1Cc1nc2c([nH]1)c(=O)n(C)c(=O)n2C (stereo not drawn),-4.5%
O=c1c2nnn(-c3ccc(Cl)cc3)c2ncn1Cc1cccc(C(F)(F)F)c1,0.5%
O=C(CSc1nc2c(c(=O)n1-c1ccccc1)SCC2)Nc1cc(C(F)(F)F)ccc1Cl,7.8%
CCOC(=O)c1oc2ccccc2c1NC(=O)c1ccc(S(=O)(=O)N(C)C)cc1,8.6%
O=C(Oc1coc(CSc2ncccn2)cc1=O)c1cccc([N+](=O)[O-])c1,-8.0%
Cc1ccsc1/C=N/Nc1ncnc2nc[nH]c12,14.9%
Cc1cc(OC(=O)c2ccccc2F)c([N+](=O)[O-])c(=O)[nH]1,4.9%
O=C(O)C(Cc1ccccc1)N1C(=O)/C(=C/c2cccnc2)SC1=S (stereo not drawn),-2.2%
CC(=O)C(Sc1ncnc2sc3c(c12)CCC(C)C3)C(C)=O (stereo not drawn),5.4%
O=C(CSc1cnc2ccccc2n1)c1ccc([N+](=O)[O-])cc1,-21.8%
Cc1ccccc1-c1nnc(NC(=O)C(C)Sc2ccccc2)s1 (stereo not drawn),14.6%
O=C(Nc1ccc(S(=O)(=O)Nc2nccs2)cc1)c1ccccc1Cl,7.4%
CCOC(=O)c1c(NC(=O)CC2Nc3cc(C)c(C)cc3NC2=O)sc(C)c1C (stereo not drawn),-5.3%
N#C/C(=C\c1c[nH]c2ccc(Br)cc12)C(=O)N1CCOCC1,81.1%
COc1ccc(Cn2cc(C(=O)c3ccc(OC)cc3)c(=O)c3ccccc32)cc1,8.9%
COc1ccc(NC(=O)c2oc3ccccc3c2NC(=O)COc2ccccc2OC)cc1,18.8%
Cc1cc(O)c(C=Nc2cccc(Cl)c2)c(=O)o1,-3.3%
CCOc1ccc(-c2nc3c(c(=O)[nH]2)Cc2cc(Cl)ccc2O3)cc1,3.7%
Nc1nc(SCC(=O)Nc2ccc(Br)cc2)[nH]c(=O)c1NC(=O)c1ccc(F)cc1,-15.3%
COc1cc(C(=O)Nc2nnc(-c3ccc(C)cc3C)o2)cc(OC)c1OC,2.53µg/mL*
Cc1cc(=O)n2c3ccccc3n(CC(O)CNc3ccc(F)cc3)c2c1C#N (stereo not drawn),10.9%
COc1ccc2oc(=Nc3ccccc3C(N)=O)c(C(N)=O)cc2c1,-6.9%
CCOC(=O)N1CCN(C(=O)CSc2nc3c(c(=O)n2-c2ccc(F)cc2)SCC3)CC1,8.1%
Fc1ccc2nc(N3CCOCC3)sc2c1,1.4%
Cc1ccccc1NC(=O)CSc1nnc(Cc2ccccc2)c(=O)n1N,1.7%
Cc1nnc(NC(=O)C(C)Sc2ccccc2)s1 (stereo not drawn),19.8%
CS(=O)(=O)c1ccc(C(=O)Nc2nnc(-c3cccnc3)o2)cc1,3.5%
COc1cccc(C2=NN(C(C)=O)C(c3cccc(OC)c3OC)C2)c1 (stereo not drawn),19.6%
COc1ccc(CC(=O)Nc2cccc(-c3ccc4nncn4n3)c2)cc1,-14.5%
CCOC(=O)c1nn(-c2ccc(OC)cc2)c(=O)c2c(NC(=O)c3c(F)cccc3Cl)scc12,8.1%
COc1cccc(C2CC(c3ccc(NS(C)(=O)=O)cc3)=NN2C(=O)CCC(=O)O)c1OC (stereo not drawn),-5.3%
CC(CO)(CO)NC(=O)Cc1cc(=O)[nH]c(=O)[nH]1,-8.2%
Cc1ccc(C)c(-c2csc(NC(=O)c3ccc(S(=O)(=O)N4CC(C)CC(C)C4)cc3)n2)c1 (stereo not drawn),3.7%
CCN1CCN(c2ccc(N3CCN(C(=O)c4ccc([N+](=O)[O-])cc4Cl)CC3)nn2)CC1,-2.6%

# Screens: PubChem BioAssay, Southern Research Institute
